eIF4H FP inh: inhibitors of RNA binding by human eIF4H. Q15056. eIF4H fluorescence polarization binding assay. inhibition, % at 35 µM. hit rate 0.94% among 290,000. AID 2012;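 active means 50% or more with normal probe brightness, or confirmed in later tests; about a fifth of its hits are not listed in these tables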;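 further: calls also rest on retests at 20 µM and on dose response follow-up; 0% = protein and probe with vehicle and 100% = probe without protein; strong numbers were not always called active; many hits fall short of the cut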
MT1-MMP act inh: blocks activation of human MT1-MMP | P50281 | HT1080 RFP-PRO-GFP cells, GFP/RFP ratio fluorescence, overnight; percent of plate control window, DMSO zero | GFP/RFP ratio change, % at 20 µM | hit rate 0.061% among 360,000;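 active means GFP/RFP ratio change of at least 30% with cell ATP level not reduced by more than half and red fluorescence within 50% of control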; further: strong numbers were not always called active
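Assay system: RFP-PRO-GFP reporter HT1080 cells; read-out basis: GFP/RFP fluorescence ratio; benchmarks: DMSO wells and RFP-L50D-GFP cells; doses: 20 µM single dose, 1% DMSO; schedule: overnight cell settling, then overnight compound exposure, 37 °C, 5% CO2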
CSC inhib: cancer stem cell inhibition. cancer stem cell-like cells viability, luminescence. inhibition, % at 7.5 µM. hit rate 1.1% among 300,000;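 active means mean at 75% or more and at least half the replicates too; tested in HMLE shEcad cells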;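 further: 0% = median of negative and 100% = median of positive control wells; the first replicate is given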
Yeast UUG start: modulators of start codon recognition fidelity in yeast; activity score, % at 18.7 µM; S. cerevisiae UUG-firefly luciferase reporter, luminescence/redox ratio; hit rate 0.13% among 350,000;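 active means replicate mean at a twofold rise or more, about +100% in these data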;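 further: firefly luciferase made from a UUG start codon reports start codon fidelity; reporter light over untreated wells divided by growth signal over untreated wells; some hits fall short of that in this replicate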
Rce1 inh: inhibitors of yeast Ras-converting enzyme | yeast membranes, quenched prenylated peptide cleavage fluorescence | calls only | hit rate 0.27% among 290,000 | AID 2563;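 active means fall in fluorescence gain of 50% or more versus controls, with final raw signal at or below 3038400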;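 further: plate controls were neutral control wells for no effect and wells lacking membranes for full effect; tested at 10 µM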
Target sequence (Q03530 whole entry, looked up): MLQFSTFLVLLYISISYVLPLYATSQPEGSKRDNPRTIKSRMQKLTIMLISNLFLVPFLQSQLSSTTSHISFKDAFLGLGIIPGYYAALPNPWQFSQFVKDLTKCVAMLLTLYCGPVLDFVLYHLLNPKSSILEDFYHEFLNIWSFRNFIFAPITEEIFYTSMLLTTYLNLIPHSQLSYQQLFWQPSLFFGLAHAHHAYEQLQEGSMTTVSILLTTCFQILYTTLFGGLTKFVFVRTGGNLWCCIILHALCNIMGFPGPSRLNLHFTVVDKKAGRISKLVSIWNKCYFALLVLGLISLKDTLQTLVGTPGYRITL
Env fusion inh: HIV envelope-mediated fusion inhibition; HeLa-JRFL Env/CEM21 cell fusion, luciferase; inhibition, % at 12.3 µM; hit rate 1.1% among 360,000;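 active means mean replicate inhibition score of at least 50 and every replicate individually at or above 50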;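 further: 0% = plate neutral controls and 100% = maraviroc near 300 nM; one replicate is shown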
PABP FP inh: blocks human PABP binding to poly(A) RNA; P11940; fluorescence polarization; inhibition, % at 35 µM; hit rate 1% among 290,000;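 active means 50% or more with normal probe brightness, or confirmed in later tests; about a fifth of its hits are not listed in these tables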;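 further: calls also rest on retests at 20 µM and on dose response follow-up; controls were probe without protein and protein plus probe with vehicle; some compounds called inactive have numbers as strong as hits; many hits fall short of the cut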
eIF4H FP inh retest: further read-out of eIF4H FP inh, marked with its call; inhibition, %; compound at 20 µM; confirmation average;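 mean of two retest wells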
PABP FP inh retest: second read-out of PABP FP inh, no call of its own (marks repeat the call); inhibition, %; compound at 20 µM; confirmation repeats;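 mean of two retest wells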
MT1-MMP act inh RFP: further read-out of MT1-MMP act inh, marked with its call; RFP signal change, %; measured here: RFP expression control read;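 0 = vehicle wells; hits needed this value within 50% of zero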
* = called active by the depositor; i = inactive; . = not tested or not shown. The order is random. About 2.9% of those tested had a hit in this group.

SMILES | eIF4H FP inh | MT1-MMP act inh | MT1-MMP act inh RFP | CSC inhib | Yeast UUG start | Rce1 inh | Env fusion inh | PABP FP inh | others
COCCNC(=O)C1(C)CCCN(C(=O)c2ccccc2OC(F)(F)F)C1 (stereo unspecified) | . | 0 | 2 | . | -3 | . | -2 | .
Cn1c(N=NC(=O)c2ccccc2)c(O)c2ccccc21 | 4 | 40 | 40 | 6 | . | i | -74 | 10
COC(=O)c1[nH]c2ccccc2c1NC(=O)CN1CCCCCC1 | 9 | -4 | -3 | -9 | 3 | i | -85 | -3
CC(=O)N/C(=C\c1cccs1)C(=O)O | 0 | 0 | 7 | -5 | . | . | 7 | -2
Cc1cc(-c2ccc(S(=O)(=O)N3CCN(c4cccc(C(F)(F)F)c4)CC3)s2)on1 | -13 | -3 | -3 | -14 | . | i | 2 | 2
O=C(COc1cc2oc(=O)c3c(c2cc1Cl)CCC3)NCCCN1CCOCC1 | -2 | 5 | -1 | 7 | -6 | i | -7 | 0
CN(C)c1nc2ccccc2c(N)c1-c1ccccc1 | -8 | -5 | -1 | -9 | . | . | . | 28
Cc1ccc(S(=O)(=O)N2CCN(CCOc3cccc(C)c3)CC2)cc1 | . | 4 | -12 | . | -5 | . | 10 | .
CN(C)c1ccc(/C=C2/NC(=O)NC2=O)cc1 | -3 | -4 | 2 | 2 | . | i | 7 | -3
COc1cc(OC)cc(C(=O)N(Cc2ccco2)c2c(N)n(Cc3ccccc3)c(=O)[nH]c2=O)c1 | . | -3 | 2 | . | -12 | . | 2 | .
O=C(N/N=C/c1cccnc1)c1ccco1 | 5 | 2 | 3 | -6 | -18 | i | -4 | 4
NC(=O)c1nsc(C(=O)N(Cc2ccco2)C(C(=O)NCc2ccccc2)c2ccc(O)cc2)c1N (stereo unspecified) | 5 | -4 | -9 | -2 | -10 | i | 7 | 8
CCOC(=O)C1CCN(S(=O)(=O)c2c(C)n(C)c(=O)n(C)c2=O)CC1 | -8 | -4 | 1 | 1 | -20 | i | 4 | 0
CCOC(=O)c1c(C)[nH]c(N=Nc2cccc(OC)c2)c1C | 11 | -1 | -2 | . | -19 | i | -158 | 2
Cc1ccc(OCC(=O)Nc2c3c(nn2C(C)(C)C)CS(=O)(=O)C3)cc1 | 7 | -1 | 2 | -25 | -3 | i | 58* | 12
Cc1ccc(Cn2c(S(=O)(=O)O)nc3ccccc32)cc1 | -2 | 3 | 7 | 0 | . | i | . | 3
COc1ccc(NC(=O)c2ccc3snnc3c2)cc1 | 4 | 0 | -3 | 7 | -7 | i | . | 14
CCc1ccc(NC(=O)CCC(=O)c2ccccc2)cc1 | 0 | 1 | 2 | -3 | -8 | i | 4 | 1
COc1ccc(C(C#N)=Cc2ccc(N(C)CCC#N)cc2)cc1 | . | -13 | -15 | . | -21 | . | -144 | .
CC(C)[C@H](NC(=O)c1ccccc1Cl)C(=O)OCC(=O)NCc1ccc2c(c1)OCO2 | . | -3 | -4 | -15 | -9 | . | . | .
CC(OC(=O)CC1CC2CCC1C2)C(=O)Nc1cccc(S(=O)(=O)N2CCOCC2)c1 (stereo unspecified) | . | 2 | -3 | -2 | . | i | -11 | .
Cc1c(N(C(=O)c2ccccn2)C2(C(=O)NC3CCCC3)CCCCC2)c(=O)n(-c2ccccc2)n1C | 1 | 1 | 6 | -4 | . | i | 14 | 15
Cc1ccc(N2CC(C(=O)Nc3ccc(S(=O)(=O)Nc4ncccn4)cc3)CC2=O)cc1C (stereo unspecified) | -6 | 3 | 2 | 3 | -3 | i | 25 | 2
CN(C)CCN(Cc1ccc(Cl)cc1)c1ccccn1 | 2 | 0 | -1 | 0 | -17 | i | -21 | 4
O=C(c1ccccc1)N1N=C(c2ccccc2)CC1c1cccs1 (stereo unspecified) | -7 | -1 | -3 | -6 | -7 | i | -3 | 5
CC(=O)N1CC(C)Sc2ccc(S(=O)(=O)NC3CCCCC3C)cc21 (stereo unspecified) | 64 | 0 | -11 | -2 | 18 | i | 2 | 8 | eIF4H FP inh retest=1;PABP FP inh retest=1
O=C(CSc1cccc2cccnc12)N1CCCC1 | -4 | 7 | 2 | 18 | . | i | . | -10
CSc1cccc(NC(C)C(=O)NCc2ccccc2)c1 (stereo unspecified) | -9 | -1 | -1 | 1 | . | i | 7 | 2
COCCN(C(=O)CSc1nnc2cc(C)c3ccccc3n12)c1c(N)n(Cc2ccccc2)c(=O)[nH]c1=O | -3 | -4 | -4 | -2 | . | i | -2 | -6
Cn1ccnc1SCC(=O)Nc1cc(F)ccc1F | -8 | 0 | 5 | -7 | -7 | i | -2 | 4
Cc1cccc(NC(=O)CN2C(=O)COc3ccc(Cl)cc32)c1 | 4 | 5 | -2 | -3 | -2 | i | . | 5
COc1ccc(/C(O)=C2/C(=O)C(=O)N(c3ccccn3)C2c2ccc(OC)cc2)cc1 (stereo unspecified) | -1 | -3 | -2 | . | -13 | i | 3 | 2
COCCNC(=S)N(CCO)Cc1cc2cc3c(cc2[nH]c1=O)OCO3 | -11 | 0 | 0 | -5 | -23 | i | -18 | 2
COc1c(Cl)cc(-c2noc(C)c2C(=O)NCCc2ccc(C)cc2)cc1Cl | -6 | -2 | 4 | 1 | 2 | i | 4 | 2
CCOc1ccc2c(c1)c1nnc(SCC3CCCO3)nc1n2C (stereo unspecified) | 5 | 4 | -1 | -13 | -16 | i | -3 | -1
Cc1ccccc1NS(=O)(=O)c1cc2c(cc1C)NC(=O)CO2 | 5 | 1 | 0 | 0 | -17 | i | 2 | -9

Pulled by structure from the list above (two):
SMILES | eIF4H FP inh | MT1-MMP act inh | MT1-MMP act inh RFP | CSC inhib | Yeast UUG start | Rce1 inh | Env fusion inh | PABP FP inh | others
Cc1c(N(C(=O)c2ccccn2)C2(C(=O)NC3CCCC3)CCCCC2)c(=O)n(-c2ccccc2)n1C | 1 | 1 | 6 | -4 | . | i | 14 | 15
Cc1ccccc1NS(=O)(=O)c1cc2c(cc1C)NC(=O)CO2 | 5 | 1 | 0 | 0 | -17 | i | 2 | -9

Later entries:
SMILES | eIF4H FP inh | MT1-MMP act inh | MT1-MMP act inh RFP | CSC inhib | Yeast UUG start | Rce1 inh | Env fusion inh | PABP FP inh | others
S=C(c1ccc(-c2ccccc2)cc1)N1CCOCC1 | -7 | 1 | 0 | -2 | -8 | i | 63* | 7
Cc1ccc(S(=O)(=O)N2CCC(C(=O)NN3CCCCC3)CC2)cc1 | . | 4 | 1 | -21 | -17 | . | . | .
Cn1cccc1Cc1nnc(SCC(=O)NCc2ccccc2Cl)n1-c1ccc(F)cc1 | -2 | -13 | 0 | -8 | -16 | i | 5 | -3
C/C(CCc1ccccc1)=N\NC(=O)c1ccc(CN2CCOCC2)cc1 | -10 | -2 | -1 | 16 | . | i | 18 | -4
Cc1cc(C)cc(N(CC(=O)NCc2ccco2)C(=O)c2snc(C(N)=O)c2N)c1 | -6 | 0 | 1 | -6 | 12 | i | . | 6
COc1cc(C(=O)N2CCC(NC(=O)C(Cc3ccc(C(C)C)cc3)NC(C)=O)CC2)cc(OC)c1OC (stereo unspecified) | 2 | 3 | 3 | -1 | -7 | i | 0 | 20
Cc1ccc(S(=O)(=O)CC(=O)c2ccc(C)c([N+](=O)[O-])c2)cc1 | -8 | -8 | 3 | -11 | -8 | i | . | -5
COc1ccc(C2Nc3ccccc3C(=O)N2NS(=O)(=O)c2ccccc2)c(OC)c1 (stereo unspecified) | 9 | -3 | -5 | -4 | -13 | i | 3 | 5
CC(=O)c1cccc(NS(=O)(=O)c2ccc(C(=O)Nc3ccccc3)cc2)c1 | -2 | 17 | -26 | . | -1 | i | 13 | -8
Cc1ccc(S(=O)(=O)N2CCOCC2)cc1NC(=O)COC(=O)Cc1ccccc1 | . | 2 | 3 | -16 | -15 | . | -3 | .
COc1ccc(S(=O)(=O)NCc2ccco2)cc1C(=O)N1CCCCC1 | 0 | 4 | 4 | -2 | -9 | i | 3 | -3
COc1ccccc1CNC(=O)C1CCC(=O)N(CCCN2CCCC2=O)C1 (stereo unspecified) | -2 | 3 | 7 | -6 | -16 | i | -8 | 8
N#CC(c1ccc(Cl)cc1)c1cccc(Cl)n1 (stereo unspecified) | -6 | 0 | 0 | 0 | . | i | -10 | -6
CC(=O)NC12CC3CC(C1)CC(C(=O)OCC(=O)Nc1ncc(Cl)cc1Cl)(C3)C2 | . | -2 | 5 | -14 | -9 | i | -9 | .
Cc1nn(CC(=O)Nc2ccc(N(C)C)cc2)c(C)c1[N+](=O)[O-] | -4 | 11 | 6 | -8 | . | i | -1 | -2
Cc1cc(C)c2cc(CN(Cc3cccnc3)C(=O)c3ccc(F)cc3)c(Cl)nc2c1 | -1 | 1 | -6 | -9 | -10 | i | . | -9
COc1ccc(NS(=O)(=O)c2cc(C(=O)OC(C)C(=O)N3CCOCC3)ccc2Cl)cc1 (stereo unspecified) | . | -8 | -7 | -10 | . | i | 4 | .
CCOCCCNC(=S)N1CCCN(c2nc3cc(C)ccc3cc2C#N)CC1 | 11 | -1 | 1 | -5 | . | i | 7 | -10
COc1ccc(NC(=O)COC(=O)c2c(C)noc2C)cc1Cl | . | 4 | 3 | . | -17 | . | 10 | .
COc1cc(OC)cc(C(=O)Nc2ccc(CN3CCCCC3)cc2)c1 | -9 | -1 | 2 | 51 | -4 | i | 10 | -7
O=C(O)c1c(Cl)c(Cl)c(Cl)c(Cl)c1C(=O)N1CCCC1 | 2 | 0 | 4 | 4 | -6 | . | -70 | 15
CCN1C(=O)[C@H]2[C@H]3CN=C(SCC(=O)c4ccccc4)N3[C@@](C)(C(=O)OC)[C@H]2C1=O | . | 6 | 8 | . | -29 | . | 3 | .
CCC(=O)c1ccccc1OCCCN1CCC(Cc2ccccc2)CC1 | 3 | 8 | -7 | 55 | -14 | i | 24 | 0
O=C(c1ccccc1)C(O)(Cc1ccccc1)c1ccccc1 (stereo unspecified) | . | -2 | -5 | 2 | 6 | i | 10 | .
C#Cc1cccc(C(=O)NC2CCCN(C3Cc4ccccc4C3)C2)c1 (stereo unspecified) | -7 | -2 | 1 | -9 | -39 | i | -3 | 3
COc1ccc(C2=NOC(C(=O)NCc3ccc(F)cc3)C2)cc1 (stereo unspecified) | -4 | 7 | -1 | 54 | 16 | i | -40 | -2
COc1ccc(NC(=O)Nc2ccc(Br)c(C)c2)cc1 | 0 | 1 | -1 | 5 | 8 | i | -21 | 2
O=[N+]([O-])c1ccc(NCCNc2ccc(Cl)nn2)cc1 | 5 | 2 | 2 | -3 | -9 | . | -3 | 5
Cc1cccc(C)c1NC(=O)CN(C)C(=O)CCc1nc2sc3c(c2c(=O)[nH]1)CCCC3 | . | -6 | -3 | . | -16 | . | -7 | .
CC(=O)Nc1ccc(C2Nc3ccccc3C(=O)N2C2CCCCC2)cc1 (stereo unspecified) | -4 | 2 | 8 | -24 | -11 | i | -57 | -5
O=C(c1ccco1)n1c(=S)nc2ccccn21 | 0 | 6 | 3 | -5 | . | i | -70 | 6
C[N+](C)(C)c1ccc(/C=N/Nc2nc(Cl)c(C#N)c(Cl)c2Cl)cc1 | 38 | -12 | -1 | 7 | . | i | -10 | -7
Cc1ccc(C(=O)CN2C(=O)c3ccccc3S2(=O)=O)cc1 | -6 | -2 | -2 | 0 | -13 | i | 78* | -4
O=C(NC(=S)Nc1ccc(O)cc1)C1CCCC1 | . | 1 | -3 | -8 | -17 | . | . | .
O=C(NC1CCSc2ccccc21)c1ccc([N+](=O)[O-])cc1 (stereo unspecified) | -3 | -6 | -5 | . | -21 | i | . | -9
COc1ccccc1NC(=O)Nc1cccc(NC(C)=O)c1 | 4 | 2 | 1 | -5 | -20 | i | 9 | -2

Compound activity (PubChem)
